From PubChem
2A StopGo: High Throughput Screening for Foot and Mouth Disease Virus Antivirals | human cells with a luciferase reporter of 2A StopGo recoding; control for the full effect not named in the record | Potency, µM (titrated, usually from 57.9 µM), for the others: at the highest dose signal change, negative = less light | 1.2% of 410,000 active | AID 1159524, 2015; active = well fitted falling curve with a large enough effect; inconclusive = small, poorly fitted or top-dose-only effect; inactive = no such curve, though single readings can be large or run the other way; tested in HEK293T cells; also: % is scaled to controls: 0 for no effect and ±100 for the full control effect; nearly all actives have a fitted effect of over 45% in size; luciferase light after 4 h
Lassa entry inh: qHTS for Inhibitors of binding or entry into cells for Lassa Virus | Lassa virus pseudotype entry inhibition, cell reporter; control for the full effect not named in the record | Potency, µM (titrated, usually from 37.9 µM), inactives show top-dose activity change, negative = inhibition, most hits filed as inhibitors | 1.2% of 300,000 active | AID 540256, 2011; active means well fitted inhibition curve with a large enough effect; inconclusive means small, poorly fitted or top-dose-only effect, or effect the other way; inactive means flat fitted curve, though single readings scatter; tested in HEK293 cells; also: % is scaled to controls: 0 for no effect and ±100 for the full control effect; nearly all actives have a fitted effect of over 50% in size; luciferase read-out
RE007 growth inh: qHTS Assay for Inhibitors of the HIV-1 protein Vpr; S. pombe RE007 Vpr strain, BacTiter-Glo ATP luminescence, 24 h; control for the full effect not named in the record; Potency, µM (doses to about 92.2 µM), inactives show at the highest dose activity change, negative = less growth; 0.21% of 360,000 active; active = well fitted falling curve with a large enough effect; inconclusive = small, poorly fitted or top-dose-only effect; inactive = no such curve, though single readings can be large or run the other way;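 also: % is scaled to controls: 0 for no effect and ±100 for the full control effect; nearly all actives have a fitted effect of over 50% in size; the assay follows cell death caused by Vpr and the record does not say whether a fall means rescue or toxicity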
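Fission yeast RE007 carrying one integrated HIV-1 vpr copy, seeded at OD 0.01 in PMG+AL medium with 23 nL pinned compound. Grown 24 h at 30 degrees; viability read by BacTiter-Glo luminescence after 5 min.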
Cruzain inh noDet: qHTS Assay for Promiscuous and Specific Inhibitors of Cruzain (without detergent). Cruzipain (Trypanosoma cruzi), P25779. purified cruzain, Z-FR-AMC fluorescence, no detergent. Potency, µM, for inactives: max response, negative = inhibition, hits mostly inhibitors. 2.3% of 200,000 active. AID 1476, 2009; active = well fitted curve in the direction sought with a large enough effect; inconclusive = small, poorly fitted or top-dose-only effect, or another doubt; inactive = no such curve, though single readings can be large; an effect the other way counts as inactive or inconclusive;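 also: plate controls were enzyme without inhibitor for no effect and buffer without enzyme for full effect; nearly all actives have a fitted effect of over 40% in size; top concentration of the series not given in the record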
Target sequence (P25779 123-467 limits assumed): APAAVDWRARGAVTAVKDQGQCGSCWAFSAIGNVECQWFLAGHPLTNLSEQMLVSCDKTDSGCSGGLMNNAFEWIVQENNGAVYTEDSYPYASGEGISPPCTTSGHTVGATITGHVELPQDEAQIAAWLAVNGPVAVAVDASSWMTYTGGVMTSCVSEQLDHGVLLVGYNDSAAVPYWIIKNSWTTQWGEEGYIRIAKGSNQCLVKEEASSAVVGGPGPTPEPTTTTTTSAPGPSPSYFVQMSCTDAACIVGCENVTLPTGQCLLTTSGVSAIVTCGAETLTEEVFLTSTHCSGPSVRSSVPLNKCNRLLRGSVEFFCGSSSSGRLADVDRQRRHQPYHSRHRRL
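Purified cruzain at 1.5 nM, pre-incubated 15 min with compound at room temperature in 100 mM sodium acetate pH 5.5, 5 mM DTT, 0.00005% Triton X-100. Reaction started with 2 uM Z-FR-AMC; AMC fluorescence increase over 60 s gives rate.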
NS1 inh: qHTS Assay for Inhibitors of Influenza NS1 Protein Function. AID 2326, 2010. 0.4% of 270,000 active. Potency, µM (titrated, usually from 46.1 µM), without a hit: at the highest dose activity, positive = more growth. S. cerevisiae slowed by influenza A NS1, growth recovery by OD600; also: actives are rising curves; nearly all actives have a fitted effect of over 50% in size
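S. cerevisiae expressing influenza A NS1, grown in glucose, washed, then diluted 1:100 into pH 6.0 -URA galactose medium with 23 nl compound. Growth recovery read as OD600; NS1-free strain serves as control.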
MARV entry inh: qHTS for inhibitors of binding or entry into cells for Marburg Virus. Potency, µM (series often up to 37.8 µM), inactives show at the top dose activity change, negative = inhibition, actives largely listed as inhibitors. AID 540276, 2011. 1.8% of 300,000 active. Marburg virus pseudotyped entry inhibition, cell reporter; control for the full effect not named in the record; about a third of the inactives were read at about 46 µM; active = well fitted inhibition curve with a large enough effect; inconclusive = small, poorly fitted or top-dose-only effect, or effect the other way; inactive = flat fitted curve, though single readings scatter; tested in HEK293 cells; about a fifth of its hits are not listed in these tables; also: % is scaled to controls: 0 for no effect and ±100 for the full control effect; luciferase read-out
Cruzain Triton: qHTS Assay for Promiscuous and Specific Inhibitors of Cruzain (with detergent). Potency, µM, for the others: max response, negative = inhibition, hits mostly inhibitors. 0.43% of 200,000 active. purified cruzain, Z-FR-AMC fluorescence, 0.01% Triton; active = well fitted curve in the direction sought with a large enough effect; inconclusive = small, poorly fitted or top-dose-only effect, or another doubt; inactive = no such curve, though single readings can be large; an effect the other way counts as inactive or inconclusive;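 also: plate controls were neutral wells for no effect and buffer without enzyme for full effect; nearly all actives have a fitted effect of over 40% in size; top concentration of the series not given in the record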
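Enzyme 1.5 nM, Z-FR-AMC 2 uM, NaOAc 100 mM pH 5.5, DTT 5 mM, Triton X-100 0.01%; 15 min RT compound preincubation; kinetic ex360/em450, 60 s delta.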
SARS PLpro yeast: qHTS of Yeast-based Assay for SARS-CoV PLP. 0.19% of 330,000 active. S. cerevisiae expressing SARS-CoV PLpro, growth rescue; control for the full effect not named in the record. Potency, µM (doses to about 32.9 µM), without a hit: at the highest dose activity, positive = growth rescue; also: 0% is about no effect; nearly all actives have a fitted effect of over 55% in size; growth read by luminescence after 48 h
* = called active by the depositor; & = joins results of further samples; [ ] = remark or other dose. Unless noted, calls follow the shape of the dose curve; as a rule, active means well fitted rising curve with a large enough effect; inconclusive means small, poorly fitted or top-dose-only effect; inactive means no such curve, though single readings can be large or run the other way. Potency is read from the fitted curve at half-maximal effect.

Results for O=C(Cc1ccccc1)Nc1nnc(-c2ccccc2)o1 ?
2A StopGo: 31.0%[activator]; RE007 growth inh: 0.7%; NS1 inh: -0.7%; SARS PLpro yeast: 3.2%

How did CCCCCOc1ccc(C(=O)Nc2ccc(S(=O)(=O)Nc3cc(C)on3)cc2)cc1 do in these assays?
2A StopGo: -20.0%; Lassa entry inh: inconclusive; RE007 growth inh: -4.2%; NS1 inh: 5.5%; MARV entry inh: 3.5%[46.1 µM]; SARS PLpro yeast: 0.1%

How did C/C(=N\NC(=O)c1ccc(CN2CCOCC2)cc1)c1ccc([N+](=O)[O-])cc1 do in these assays?
2A StopGo: inconclusive; Lassa entry inh: 5.9%; RE007 growth inh: -8.1%; Cruzain inh noDet: -7.0%; MARV entry inh: 10.0%; Cruzain Triton: -9.1%; SARS PLpro yeast: -6.6%

What do the screens show for `CC(=O)c1ccc(N(C(=O)c2ccco2)C(C(=O)NC2CCCC2)c2ccc(N3CCOCC3)cc2)cc1` (stereo not given)?
2A StopGo: -5.0%; Lassa entry inh: 2.0%[46.1 µM]; RE007 growth inh: -3.2%; NS1 inh: 1.0%; MARV entry inh: -4.7%[46.1 µM]; SARS PLpro yeast: 0.5%

What do the screens show for `COC(=O)C1CCN(C(=O)C2CCN(C(=O)[C@@H](NS(=O)(=O)c3ccc(C)cc3)C(C)C)CC2)CC1`?
2A StopGo: -9.0%; RE007 growth inh: 9.6%; NS1 inh: -4.4%; SARS PLpro yeast: 6.0%

Results for CCN1CCN(c2c(Cl)cccc2NC(=O)c2ccc([N+](=O)[O-])cc2)CC1 ?
2A StopGo: -18.7%; Lassa entry inh: 7.0%; RE007 growth inh: 14.7%; NS1 inh: 3.2%; MARV entry inh: -25.9%; SARS PLpro yeast: -0.3%

What do the screens show for `CCOC(=O)CC(NC(=O)Cn1nnc(-c2ccc(C(F)(F)F)cc2)n1)c1ccccc1Cl` (stereo not given)?
2A StopGo: inconclusive; Lassa entry inh: -2.2%[46.1 µM]; Cruzain inh noDet: -12.5%; MARV entry inh: inconclusive; Cruzain Triton: -3.8%

What do the screens show for `Cc1ccc(-n2c(SCC(=O)NC3CCS(=O)(=O)C3)nc3ccccc3c2=O)cc1` (stereo not given)?
2A StopGo: 6.3%; Lassa entry inh: 13.1%; RE007 growth inh: -2.4%; NS1 inh: -2.3%; MARV entry inh: -4.5%[46.1 µM]; SARS PLpro yeast: -6.4%

How did CC(=O)Nc1ccc(S(=O)(=O)N(C)c2ccc(OCC(=O)OCC(=O)N3CCCCC3)cc2)cc1 do in these assays?
2A StopGo: -6.5%; Lassa entry inh: 12.3%; RE007 growth inh: -6.4%; MARV entry inh: -1.1%; SARS PLpro yeast: 2.0%

Results for COc1ccc(N2C(=O)[C@@H]3[C@H](C2=O)[C@H]2c4ccccc4C=CN2[C@@H]3C(=O)Nc2ccccc2)cc1 ?
2A StopGo: 29.5%; Lassa entry inh: 15.1%; RE007 growth inh: -8.3%; Cruzain inh noDet: inconclusive; NS1 inh: 27.8%; MARV entry inh: -11.1%&-11.1%; Cruzain Triton: -0.3%; SARS PLpro yeast: 5.5%

Results for Cc1c(C)c2cc(Cl)c(OCC(=O)N3CCN(c4ccc(F)cc4)CC3)cc2oc1=O ?
2A StopGo: -12.2%; Lassa entry inh: -1.0%[46.1 µM]; RE007 growth inh: -8.5%; NS1 inh: 14.9%; MARV entry inh: 11.6%[46.1 µM]; SARS PLpro yeast: -4.0%

How did Cc1ccc(Cn2c(C(=O)O)c(CNCc3ccc(OC(C)C)cc3)c3ccc(C)cc32)cc1 do in these assays?
2A StopGo: inconclusive; Lassa entry inh: inconclusive; Cruzain inh noDet: inconclusive; Cruzain Triton: -13.8%

Results for O=C(NCCc1csc2nc(-c3ccccc3F)nn12)C(=O)Nc1cc(F)ccc1F ?
2A StopGo: -15.5%; Lassa entry inh: 1.2%[46.1 µM]; Cruzain inh noDet: -5.1%; Cruzain Triton: -0.9%

What do the screens show for `CCOc1ccc(N2C(=O)c3n[nH]c(-c4cccs4)c3C2c2cccc(F)c2)cc1` (stereo not given)?
2A StopGo: inconclusive; Lassa entry inh: inconclusive; Cruzain inh noDet: inconclusive; MARV entry inh: inconclusive; Cruzain Triton: -10.9%

How did Cc1cccc(CCn2c(=O)c3ccccc3n(CC(=O)Nc3ccccc3F)c2=O)c1 do in these assays?
2A StopGo: 4.8%; Lassa entry inh: inconclusive; Cruzain inh noDet: -1.6%; MARV entry inh: 5.5%[46.1 µM]; Cruzain Triton: -0.3%

Results for Cc1cccnc1Sc1c([N+](=O)[O-])ncn1C ?
2A StopGo: -18.3%; Lassa entry inh: -6.8%; RE007 growth inh: -8.1%; Cruzain inh noDet: -4.9%; NS1 inh: 1.5%; MARV entry inh: 2.9%; Cruzain Triton: 2.8%; SARS PLpro yeast: -1.8%

What do the screens show for `COC(=O)c1ccccc1NC(=O)Cn1cnc2cc(C)c(C)cc21`?
Lassa entry inh: 2.1%; RE007 growth inh: 2.1%; Cruzain inh noDet: 21.2%; NS1 inh: -6.7%; MARV entry inh: inconclusive; Cruzain Triton: -3.0%; SARS PLpro yeast: 2.9%

What do the screens show for `CC1(C)CC(N=Cc2c(O)n(Cc3ccc4c(c3)OCO4)c(=O)c3ccccc23)CC(C)(C)N1`?
2A StopGo: -18.9%; Lassa entry inh: inconclusive; RE007 growth inh: -7.4%; MARV entry inh: inconclusive; SARS PLpro yeast: -8.5%

How did C=CCn1c(SCC(=O)NC23CC4CC(CC(C4)C2)C3)nc(O)cc1=O do in these assays?
2A StopGo: -13.2%; Lassa entry inh: -3.6%; RE007 growth inh: 10.5%; Cruzain inh noDet: -3.8%; NS1 inh: inconclusive; MARV entry inh: -18.1%; Cruzain Triton: -13.6%; SARS PLpro yeast: -24.7%

Results for CC(Sc1nnc(N)s1)C(=O)Nc1ccc(N2CCOCC2)cc1 (stereo not given) ?
2A StopGo: -12.0%; Lassa entry inh: 6.0%; RE007 growth inh: -7.8%; Cruzain inh noDet: 0.6%; NS1 inh: 3.5%; MARV entry inh: 25.2%; Cruzain Triton: 4.7%; SARS PLpro yeast: 0.9%

How did CCCCNC(=O)N(O)C1N(/N=C/c2cccnc2)C(=S)SC1(C)C (stereo not given) do in these assays?
2A StopGo: 28.1%; Lassa entry inh: 7.5%[46.1 µM]; RE007 growth inh: 3.6%; NS1 inh: -2.6%; MARV entry inh: -0.9%[46.1 µM]; SARS PLpro yeast: 0.4%

What do the screens show for `COc1ccc(NC(=O)c2cc3c(CO)cnc(C)c3oc2=Nc2cccc(F)c2)c(OC)c1`?
2A StopGo: -22.0%; RE007 growth inh: -0.1%; NS1 inh: 2.4%; SARS PLpro yeast: 0.4%

How did Cc1ccc(C2=[N+]([O-])C(C)N(O)C2(C)C)o1 (stereo not given) do in these assays?
2A StopGo: -19.3%; Lassa entry inh: inconclusive; RE007 growth inh: -0.9%; Cruzain inh noDet: -1.7%; NS1 inh: -8.6%; MARV entry inh: 5.4%; Cruzain Triton: 2.0%; SARS PLpro yeast: -4.2%

Results for Cc1cc(S(=O)(=O)N2c3ccc(F)cc3CCC2C)ccc1-n1cnnn1 (stereo not given) ?
2A StopGo: 16.1%; Lassa entry inh: -2.8%; RE007 growth inh: 76.6%; NS1 inh: 17.5%; MARV entry inh: 2.1%[46.1 µM]; SARS PLpro yeast: -2.9%

How did CCCCCN(C(=O)CCC(=O)OCC(=O)NCc1cccc(OC)c1)c1c(N)n(CCCC)c(=O)[nH]c1=O do in these assays?
2A StopGo: -7.0%; Lassa entry inh: 1.6%; RE007 growth inh: -11.5%; NS1 inh: 2.9%; MARV entry inh: 7.7%; SARS PLpro yeast: 0.2%

Results for O=C(NC1CCCCCC1)C1c2ccccc2C(=O)N1Cc1ccccc1Cl (stereo not given) ?
2A StopGo: -10.9%; Lassa entry inh: -9.7%[46.1 µM]; Cruzain inh noDet: -11.0%; MARV entry inh: inconclusive; Cruzain Triton: -1.1%

What do the screens show for `Nc1ccnn1Cc1ccncc1`?
2A StopGo: -10.9%; Lassa entry inh: -9.8%; RE007 growth inh: -18.4%; NS1 inh: 0.5%; MARV entry inh: -12.2%; SARS PLpro yeast: 0.7%

Results for Cc1cc(C)cc(NC(=O)CSc2nc3[nH]ncc3c(=O)[nH]2)c1 ?
2A StopGo: 27.7%; Lassa entry inh: 10.0%; RE007 growth inh: 6.6%; Cruzain inh noDet: 13.5%; NS1 inh: 8.3%; MARV entry inh: inconclusive; Cruzain Triton: -2.1%; SARS PLpro yeast: 15.3%

How did COC(=O)CN1C2=NCCCN2c2ccccc21 do in these assays?
2A StopGo: 0.0%; Lassa entry inh: 4.5%; RE007 growth inh: -4.0%; NS1 inh: 5.0%; MARV entry inh: 22.8%[46.1 µM]; SARS PLpro yeast: -0.5%

How did COc1ccc(N2CCN(S(=O)(=O)c3cnc[nH]3)CC2)cc1 do in these assays?
2A StopGo: -3.6%; Lassa entry inh: inconclusive; RE007 growth inh: 27.7%; NS1 inh: 3.2%; MARV entry inh: 5.9%; SARS PLpro yeast: 0.0%

Results for CCN(CC)C1CCN(C(=O)c2ccc(OC3CCN(Cc4ccccn4)CC3)cc2)C1 (stereo not given) ?
2A StopGo: -11.2%; RE007 growth inh: -11.4%; NS1 inh: -0.2%; SARS PLpro yeast: 2.4%

How did Cc1ccsc1C(=O)C1CCCN(CCO)C1 (stereo not given) do in these assays?
2A StopGo: 4.3%; Lassa entry inh: 5.5%[46.1 µM]; RE007 growth inh: -10.0%; NS1 inh: 6.8%; MARV entry inh: inconclusive; SARS PLpro yeast: 0.6%

What do the screens show for `COc1cc(C(=O)NCc2ccco2)cc(OC)c1OC`?
2A StopGo: 7.7%; Lassa entry inh: -3.0%; RE007 growth inh: 7.0%; Cruzain inh noDet: 12.5%; NS1 inh: 2.1%; MARV entry inh: 10.0%; Cruzain Triton: 2.1%; SARS PLpro yeast: 4.0%

How did CCCC1Cc2c(sc3nc(SC)nc(N)c23)CO1 (stereo not given) do in these assays?
2A StopGo: -14.5%; Lassa entry inh: -3.5%; RE007 growth inh: 12.0%; Cruzain inh noDet: -24.6%; NS1 inh: -6.2%; MARV entry inh: 0.5%[46.1 µM]; Cruzain Triton: -1.4%; SARS PLpro yeast: -5.1%

Results for Cc1cccc(C)c1NC(=O)CNC(=O)CCCc1c[nH]c2ccccc12 ?
2A StopGo: 4.1%; Lassa entry inh: -4.9%; RE007 growth inh: -3.0%; MARV entry inh: -17.4%; SARS PLpro yeast: 5.1%

Compounds were not picked by outcome; any-hit rate near 4.5%.
